# Source: PubChem
# HTT prom inh: Primary qHTS for Identification of Small Molecule Inhibitors of Huntingtin Promoter Activity | HEK293 HTT promoter firefly luciferase reporter (activity 0% = vehicle and -100% = no light), 24 h | Potency, µM (titrated, usually from 57.5 µM), for inactives: top-dose activity change, negative = inhibition, hits mostly inhibitors | hit rate 0.93% among 48,000; active = well fitted inhibition curve with a large enough effect; inconclusive = small, poorly fitted or top-dose-only effect; inactive = no such curve, though single readings can be large or run the other way; also: nearly all actives have a fitted effect of over 50% in size
#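 Firefly luciferase signal from promoter-reporter HEK293 cells was scaled between vehicle (0%) and zero RLU (-100%). Compounds were tested at final concentrations of up to 57.5 uM over 24 h at 37 degrees C. PTC124 at 50 uM final served as control inhibitor.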
# PMP22 txn prim: Cell-based coincidence reporter assay to measure PMP22 gene transcription in S16 Pmp22-F2sN cells - Primary screen; S16 Pmp22-F2sN Schwann cells (luciferase reporters placed in the Pmp22 gene), FLuc/NLuc coincidence luminescence, 24 h; hit rate 2% among 43,000; Potency, µM (highest dose often 57.5 µM), without a hit: at the top dose activity change, negative = inhibition, actives largely listed as inhibitors; active = clear falling dose curves in both reporters; inconclusive = both reporters move, but less clearly or upward; inactive = either reporter flat; the % is the NLuc reporter signal; also: % is scaled to controls: 0 for no effect and ±100 for the full control effect; some results filed as inactive show a strong effect at the top dose
#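 Schwann cells carrying the coincidence reporter were exposed to library compounds for 24 h at 37C, then lysed and read for FLuc and, after quenching, NLuc luminescence on a CCD imager.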
# Active calls of the source: *; u = inconclusive; x = not tested or not shown; [ ] = dose if it differs, or a comment. Potency is read from the fitted curve at half-maximal effect. This is a subset; rates above refer to the full screens.
Structure | HTT prom inh | PMP22 txn prim
CSc1ncc(Cl)c(C(=O)Nc2c(C(=O)c3ccc(C)cc3)oc3ccccc23)n1 | -10.5% | -3.8%
COc1cc2nc(NCCc3ccccc3)n3nc(-c4cccnc4)nc3c2cc1OC | -2.1% | -10.1%
Cc1cccc(Oc2nc3c(c(=O)n(C)c(=O)n3C)n2C)c1 | -23.2%[11.5 µM] | u
COc1ccc(Cn2ccnc2SCC(=O)Nc2nnc(C)s2)cc1 | -23.7% | 35.8%
Cc1c(C(=O)N(C)C)sc2c1c(=O)n(-c1ccc(F)cc1)c(=O)n2Cc1ccccc1C#N | 9.3% | -7.4%
Cc1cccc(Nc2nc(C)nc(N)c2S(=O)(=O)c2ccccc2)c1 | -8.8% | -24.8%
CCCS(=O)(=O)N1CC(=O)N(c2cccc(F)c2)C(C)(C(=O)NC2CCCCCC2)C1 (configuration not stated) | 0.6% | 3.4%
CCOC(=O)/C=C(C)/C=C/C=C(C)/C=C/c1c(C)cc(OC)c(C)c1C | 6.8% | x
CC1Cc2ccccc2N1C(=O)CSc1nnc(-c2cccc(Cl)c2)o1 (configuration not stated) | 12.9% | -9.4%
Fc1ccccc1N1CCN(c2ncc3c(n2)CCN(Cc2ccc(Br)s2)C3)CC1 | -28.8% | 0.0%
CCOc1ccc(CCNC(=O)C2CCN(C(=O)c3cc4sccc4n3CC)CC2)cc1OCC | u | u
COc1cccc(NC(=O)/C(C#N)=C/c2ccc(-c3ccc(C)cc3)o2)c1 | u | -22.6%
CCCCCCCN(CC)CCCC(O)c1ccc(NS(C)(=O)=O)cc1 (configuration not stated) | 2.9% | x
CCCCC(=O)Nc1cccc(-c2nc3ccccc3s2)c1 | 32.9%[activator] | u
CCn1c(=O)cc(SCC(=O)NCCc2ccc(OC)cc2OC)c2ccccc21 | -11.5% | -18.8%
COc1cccc(NC(=O)C2CCCN(c3nnc(-n4c(C)ccc4C)s3)C2)c1 (configuration not stated) | -7.5% | u
Cc1nn(-c2ccccc2)c2c1N(CC(=O)N1CCN(c3ccc(F)cc3)CC1)C(=O)CS2 | -11.4% | -19.7%
CCC(=O)N1CCCc2cc(S(=O)(=O)N3CCC(C(=O)NC4CCCCC4)CC3)ccc21 | -12.9% | -2.2%
CCOC(=O)c1c(Nc2cccc(O)c2)nnc(-c2ccccc2)c1-c1ccccc1 | -10.4% | u
CC1CCc2c(sc(NC(=O)CCCOc3ccccc3)c2C(N)=O)C1 (configuration not stated) | 0.6% | -43.7%
C/C=C1\NC(=O)[C@H]2CSSCC/C=C/[C@H](CC(=O)N[C@H](C(C)C)C(=O)N2)OC(=O)C(C(C)C)NC1=O (some centres not stated) | -88.9% | x
CCn1c(CNC(=O)C23CC4CC(CC(C4)C2)C3)nnc1SCC(=O)Nc1ccc(OC)cc1 | -16.3% | -10.6%
COc1cccc(NC(=O)CSc2nc3ccc(NC(=O)c4cccs4)cc3s2)c1 | -6.6% | u
CCOC(=O)c1sc2ccccc2c1S(=O)(=O)N1CCN(c2ccccc2F)CC1 | -13.7% | -0.7%
CC(Oc1ccc(F)cc1)C(=O)Nc1cc(-c2ccc(F)c(F)c2)no1 (configuration not stated) | -6.4% | -0.1%
COc1ccc(-c2nc(C)c(CCNC(=O)c3cccs3)s2)cc1 | 1.1% | -0.4%
Cc1ccc(C(C)C)c(OCCSc2nc(-c3ccccc3F)nc3cc(=O)[nH]n23)c1 | -4.2% | -5.5%
O=C(c1ccccc1Br)N(Cc1ccccc1F)C1CCS(=O)(=O)C1 (configuration not stated) | 2.0% | -13.2%
CN(C)c1ccc(CNC(=O)C2CCN(c3nnc(-n4cccc4)s3)CC2)cc1 | u | u
CNC(=O)c1cc(Oc2ccc(NC(=O)Nc3ccc(Cl)c(C(F)(F)F)c3)cc2)ccn1 | u | x
O=C(CCS(=O)(=O)c1ccc2c(c1)NC(=O)CO2)Nc1cccc(C(F)(F)F)c1 | -4.9% | -17.4%
CC(C)CSc1oc(-c2ccco2)nc1S(=O)(=O)c1ccc(Br)cc1 | u | u
COc1ccc(NC(=O)CSc2oc(-c3ccco3)nc2S(=O)(=O)c2ccc(Br)cc2)c(OC)c1 | u | u
COc1cccc(-c2nn(C)c3sc(C(=O)NCc4ccc(C)cc4)cc23)c1 | -22.9% | u
CN(C)CC[C@H](CSc1ccccc1)Nc1ccc(S(=O)(=O)NC(=O)c2ccc(N3CCN(Cc4ccccc4-c4ccc(Cl)cc4)CC3)cc2)cc1[N+](=O)[O-] | -12.4% | x
CCn1c(=N)c(C(=O)NC2CCCC2)cc2c(=O)n3ccccc3nc21 | 2.6% | -0.7%
COc1cccc(Cn2nc(SC)c(S(=O)(=O)c3ccccc3)c2N(C(C)=O)C(C)=O)c1 | -28.3% | u
CCOc1ccc(C(=O)OCc2cc(=O)n3nc(C(C)C)sc3n2)cc1 | -6.2% | -11.4%
CCOc1ccc(CC(=O)Nc2c(C(=O)c3ccccc3)oc3ccc(OC)cc23)cc1OCC | -6.6% | -14.1%
Cc1ccc(CNC(=O)CN2C(=O)C3CCCCN3c3ccc(C(=O)N(C)C)cc32)cc1 (configuration not stated) | -5.1% | 0.4%
COc1cccc(-n2c(=O)c3sccc3n(Cc3cc(=O)n4cc(Cl)ccc4n3)c2=O)c1 | -4.4% | -24.0%
Cc1cccc(NS(=O)(=O)c2ccc3c(c2)C(C)(C)C(=O)N3C)c1 | -23.3% | -5.9%
CCC(C(=O)NCc1cccc(Br)c1)n1nc(C)c2c(C)n(-c3ccccc3)nc2c1=O (configuration not stated) | u | u
COC(=O)/C=C\C(=O)OC | -1.4% | x
CC(NC(=O)c1cc2ccccc2o1)c1ccccc1 (configuration not stated) | -29.1% | -2.0%
Cn1c(=O)oc2cc(S(=O)(=O)CCC(=O)NCCc3ccccc3)ccc21 | 8.8% | -32.5%
O=C(NCc1ccc(F)cc1)c1cnc(N2CCCCC2)c2ccccc12 | -21.7% | -26.3%
COc1cccc(NC(=O)c2sc3nc(C)c(C(=O)Nc4ccc(C)cc4C)c(-c4cccs4)c3c2N)c1 | -12.6% | -15.0%
Cc1ccc(OC(=O)CSc2nnc(-c3cccs3)o2)cc1C | -1.9% | -10.4%
CCOc1ccccc1NC(=O)c1cc(=O)c2ccc(C)cc2o1 | -17.4%[11.5 µM] | -11.3%
COc1ccc(C2=C(C)C(=O)N(Cc3ccc(C(=O)NCc4ccc(C)cc4)cc3)S2(=O)=O)cc1 | -12.9% | -8.1%
Cc1cc(N2CCN(c3ccccc3)CC2)n2cnnc2n1 | u | -21.4%
COc1cccc(NC(=O)Cn2c(=O)n(Cc3ccc(C(=O)NCc4ccc(C)cc4)cc3)c(=O)c3ccccc32)c1 | 2.0% | -25.9%
COc1ccc(-c2cc(OC(=O)c3cccc(Cl)c3)c3c(C)oc(C)c3c(=O)c2)cc1OC | -29.9% | -10.3%
CCc1ccc(C2c3c(n[nH]c3C)C(=O)N2c2ccc(C)cc2)cc1 (configuration not stated) | 34.5%[activator] | 26.5%
C=Cc1ccc(Cn2c(C)c(CNCCc3ccccc3C)c(C(=O)O)c2C)cc1 | -30.8% | u
Cc1ccc(C)c(NC(=O)CSc2nncn3c2cc2sccc23)c1 | 4.1% | u
CCOC(=O)c1cc2c(=O)n3ccccc3nc2n(CC2CCCO2)c1=NC(=O)c1cccc(C)c1 (configuration not stated) | -29.8% | u
O=C(c1ccc(Br)cc1)N1CCN(CCc2ccncc2)CC1 | -16.6% | -45.1%
COc1ccc(N2CCN(c3ccc(-c4nc(-c5ccccc5C)no4)cc3[N+](=O)[O-])CC2)cc1 | 2.9% | -3.2%

# Continued.
Structure | HTT prom inh | PMP22 txn prim
Cc1ccccc1CS(=O)(=O)Cc1ccc(C(=O)NCCc2ccccc2)o1 | -22.4% | -36.0%
Cn1c(=O)c2sccc2n2c(CCC(=O)N3CCN(c4cccc(Cl)c4)CC3)nnc12 | -10.6% | u
CCN1CCN(Cc2nc3cc(NC(=O)c4cccc([N+](=O)[O-])c4)ccc3n2CC)CC1 | -7.4% | -44.1%
O=C(CSc1nc(O)c(C/C=C/c2ccccc2)c(=O)[nH]1)Nc1cccc(F)c1 | -9.4% | 8.9%
COc1ccc(-n2c(/C=C/c3ccccc3F)nc3cc(OC)c(OC)cc3c2=O)cc1Cl | u | -29.4%
CC(=O)N(Cc1cccnc1)c1nc2cc(C)cc(C)c2s1 | -8.9% | 1.2%
Cc1ccc(NC(=O)c2ccc(F)c(S(=O)(=O)N3CCc4ccccc4C3)c2)cc1F | u | -97.3%
CCOC(=O)c1cc2c(=O)n3ccccc3nc2n(CCCOC)c1=NC(=O)C(C)Oc1ccccc1 (configuration not stated) | -16.4% | -9.3%
COCCc1nn2c(=O)cc(COC(=O)COc3ccc(F)cc3)nc2s1 | -2.5% | 0.1%
COc1cccc(Cn2c(=O)n(CC3CCC(C(=O)N4CCOCC4)CC3)c(=O)c3sccc32)c1 (configuration not stated) | -24.3% | 2.8%
CCOc1ccc2c(c1)NC(c1cccs1)=NC(c1ccc(F)cc1)=N2 | -2.6% | u
CCn1c(C(=O)N2CCC(C(=O)NCCc3ccc(OC)cc3OC)CC2)cc2sccc21 | u | u
COc1ccccc1N1CCN(c2nc3ccc(C(=O)c4ccccc4)cc3n3c(C)nnc23)CC1 | 5.0% | -4.5%
COc1ccc(C)cc1NS(=O)(=O)c1ccc2c(c1)CCCN2C(C)=O | -14.8% | -5.3%
CC(C)c1ccc2oc(-c3cc(NC(=O)c4cccnc4)ccc3Cl)nc2c1 | -21.7%[11.5 µM] | u
Cc1cc(C)c(NC(=O)Cn2nc(-c3ccncc3)ccc2=O)c(C)c1 | -4.1% | -22.4%
O=C(NCCc1ccccc1)c1ccc2c(c1)N(Cc1ccc(F)cc1Cl)C(=O)CS2 | -13.8% | -26.8%
O=C(Nc1nnc(S(=O)(=O)Nc2ccccc2)s1)c1ccccc1Cl | -10.4% | -43.1%
Cc1ccc(Cl)cc1N1CCN(C(c2ccc(F)cc2)c2nnc(-c3ccccc3)o2)CC1 (configuration not stated) | -8.8% | -4.0%
COc1ccccc1CNc1nc2ccccc2c2nc(-c3cccnc3)nn12 | 0.6% | -11.5%
CCC(=O)Nc1ccc2nc(SCc3ccccc3)sc2c1 | 4.9% | u
COc1ccc(C2=C(C)C(=O)N(Cc3ccc(C(=O)Nc4cc(C)ccc4C)cc3)S2(=O)=O)cc1 | u | u
Cc1c(Cl)cccc1-n1ncc(C(=O)N2CCN(c3ncccn3)CC2)c1C1CCN(C(=O)OC(C)(C)C)CC1 | -23.7% | -4.3%
CC1C(=O)Nc2ccc(S(=O)(=O)N3CCCCC3)cc2NC1=O (configuration not stated) | u | -11.8%
Cc1cc(C)c2c(-n3cccc3)c(C(=O)NCCc3ccccc3)sc2n1 | 1.3% | -21.5%
COc1ccc(S(=O)(=O)N(Cc2nc(-c3ccc(Cl)cc3)no2)C2CCCCC2)cc1 | u | u
CCCOc1ccc(-c2nonc2NC(=O)c2oc3ccc(C)cc3c2C)cc1OCCC | -13.2% | -10.5%
COc1ccccc1/C=C/c1nc(C#N)c(NCc2ccccc2)o1 | -9.4% | 2.9%
CC(C)OCCCn1c(=O)c2ccccc2n2c(-c3ccc(F)c(F)c3)nnc12 | -4.2% | -14.9%
Cc1ccc(NC(=O)CCc2c(C)nc3c(-c4ccc(F)cc4)c(C)nn3c2C)cc1F | -8.9% | -13.0%
COc1ccccc1CNC(=O)c1cnc(N2CCCC2)nc1C | -10.0% | 3.6%
COc1ccc(OC)c(NS(=O)(=O)c2ccc(N3CCCCS3(=O)=O)cc2)c1 | u | u
Cc1cc(F)ccc1NC(=O)Cn1cc(S(=O)(=O)NC(C)C)c(S(=O)(=O)NC(C)C)c1 | -9.3%[11.5 µM] | 6.4%
COc1cccc(NC(=O)c2ccc3nc(CCc4ccccc4)oc3c2)c1 | 1.1% | 8.4%
COc1cc(OC)cc(C(=O)Nc2ccc3c(c2)n(C)c(=O)c(=O)n3C)c1 | 0.3% | 33.2%
CC(C)CC(=O)N1c2nc(C(C)C)nn2C2(CCCCC2)[C@@H]2CCCC[C@@H]21 | -8.3% | -35.7%
Cc1cccc(Cn2cc(C(=O)c3ccccc3)c(=O)c3cc4c(cc32)OCO4)c1 | -17.1% | 2.0%

# Record cards, from the list above. Values in the order: HTT prom inh | PMP22 txn prim
# COc1cccc(NC(=O)CSc2nc3ccc(NC(=O)c4cccs4)cc3s2)c1 is listed as -6.6% | u
# Cc1cccc(NS(=O)(=O)c2ccc3c(c2)C(C)(C)C(=O)N3C)c1 is listed as -23.3% | -5.9%

# Looked up above.
# PMP22 txn prim with `Cc1cccc(Cn2cc(C(=O)c3ccccc3)c(=O)c3cc4c(cc32)OCO4)c1` : 2.0%
# HTT prom inh with `COc1cccc(NC(=O)CSc2nc3ccc(NC(=O)c4cccs4)cc3s2)c1` : -6.6%
# HTT prom inh with `O=C(NCc1ccc(F)cc1)c1cnc(N2CCCCC2)c2ccccc12` : -21.7%
# HTT prom inh with `CCOc1ccc(C(=O)OCc2cc(=O)n3nc(C(C)C)sc3n2)cc1` : -6.2%
# PMP22 txn prim with `CC(NC(=O)c1cc2ccccc2o1)c1ccccc1` (configuration not stated) : -2.0%
